VDR inh: Inhibitors of the vitamin D receptor (VDR): qHTS; VDR-SRC2-3 peptide fluorescence polarization, 2 h; 400,000 tested, 0.93% active; Potency, µM, without a hit: max response, negative = inhibition, most hits filed as inhibitors; Vitamin D3 receptor (Homo sapiens), P11473; active means well fitted inhibition curve with a large enough effect; inconclusive means small, poorly fitted or top-dose-only effect, or another doubt; inactive means no such curve, though single readings can be large or run the other way; further: series mostly up to about 120 µM
Target sequence (P11473 whole entry, looked up): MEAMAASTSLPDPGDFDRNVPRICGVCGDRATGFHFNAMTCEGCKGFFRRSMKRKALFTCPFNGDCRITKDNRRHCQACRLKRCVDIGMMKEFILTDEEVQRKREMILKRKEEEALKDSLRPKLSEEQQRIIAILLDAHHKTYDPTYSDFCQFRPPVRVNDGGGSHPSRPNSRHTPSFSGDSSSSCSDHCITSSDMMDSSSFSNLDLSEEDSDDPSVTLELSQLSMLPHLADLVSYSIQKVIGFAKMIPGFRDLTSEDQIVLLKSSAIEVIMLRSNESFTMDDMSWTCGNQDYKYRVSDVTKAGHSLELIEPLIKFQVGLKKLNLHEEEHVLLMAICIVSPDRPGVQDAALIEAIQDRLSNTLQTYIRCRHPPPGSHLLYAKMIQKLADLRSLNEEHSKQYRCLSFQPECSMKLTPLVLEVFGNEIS
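After 23 nl compound addition and a short centrifugation, plates sat for 2 hours at ambient temperature; polarization of fluorescence then indicated loss of VDR binding to peptide SRC2-3.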
Active calls of the source: *; & = joins results of further samples. On the % scale 0 is the no-effect control and ±100 the full control effect; potency means the concentration at half of the fitted maximal effect. These rows are one share of the data, so the mix of outcomes need not match the whole.

`CCOc1ccc(CCNC(=O)CSc2n[nH]c(-c3ccccc3)n2)cc1OCC` gave VDR inh 14%.
OCCC1CN(Cc2ccccc2O)CCN1CCc1ccccc1 (stereo not given) was read as VDR inh -12%.
Screening Cc1cccc(-n2c(N)cc(=O)[nH]c2=S)c1 returned VDR inh 22%.
Screening Cc1cc(C(=O)Nc2ccc(Br)cc2F)n(-c2ccccc2)n1 returned VDR inh 5%.
For Cc1ccc(-c2nn(-c3ccccc3)cc2CC(=S)N2CCOCC2)cc1 the results were VDR inh -14%.
COC(=O)C1CCN(C(=O)c2ccccc2NC(C)=O)CC1 was read as VDR inh 2%.
Screening Cc1ccc(C(c2nnnn2CC2CCCO2)N2CCN(c3cccc(C)c3C)CC2)cc1 (stereo not given) returned VDR inh -7%.
O=C(NC(=S)Nc1ccccc1N1CCCC1)c1ccc([N+](=O)[O-])cc1 was read as VDR inh -12%.
For O=C(Oc1cccc2c(O)cccc12)c1ccccc1Cl the results were VDR inh -10%.
COc1ccc(S(=O)(=O)N2CCCC2)cc1OC was read as VDR inh -7%.
`CCc1nnc(SCc2cc(C)ccc2C)c2cc3sc(C)cc3n12` gave VDR inh 0%.
Cc1cccc(NC(=O)CCNS(=O)(=O)c2cc(Br)cnc2N)c1C was read as VDR inh -8%.
CCN(CC(=O)NCc1cccs1)C(=O)c1ccc(NS(=O)(=O)c2ccc(F)cc2)cc1 was read as VDR inh -2%.
`Cc1cc(NC(=O)c2ccc(S(=O)(=O)N(C)C)cc2)n(-c2ccccn2)n1` gave VDR inh 3%.
CNC(=S)N(C1=NCC(c2ccc([N+](=O)[O-])cc2)S1)c1ccccc1 (stereo not given) was read as VDR inh -2%.
`COc1ccc(S(=O)(=O)N(CC(=O)Nc2ccc(F)c(Cl)c2)c2ccc(C)cc2)cc1OC` gave VDR inh 19%.
`CC(NC(=O)OC(C)(C)C)C(=O)N1CCCC1C(=O)NC(Cc1ccccc1)C(N)=O` (stereo not given) gave VDR inh 5%.
Screening CCN(c1ccc(OC)cc1)S(=O)(=O)c1ccc(-c2ccc(=O)[nH]n2)o1 returned VDR inh 9%.
COc1ccc(Cc2nnc(N/N=C/c3ccccc3O)[nH]c2=O)cc1OC was read as VDR inh -23%.
Screening O=C(O)CN1C(=O)c2cccc3c(Br)ccc1c23 returned VDR inh inconclusive.
`CC1CCCC(C)N1C(=O)COC(=O)Cc1ccc(F)cc1` (stereo not given) gave VDR inh -8%.
CN(c1ccc(C(=O)N2CCCCCC2)cc1)S(=O)(=O)c1ccc(Cl)cc1 was read as VDR inh -22%.
Screening O=C(Nc1ccc(Cl)cc1Cl)C1=Cc2ccccc2OC1 returned VDR inh 18%.
C/C(=N\NC=O)c1ccncc1 was read as VDR inh 0%.
`CCOc1cc(NC(=O)c2ccco2)c(OCC)cc1NC(=O)CCC(=O)NCc1cccnc1` gave VDR inh 2%.
For Cn1nc(-c2ccc(Cl)cc2)c2cc(C(=O)N3CCN(C(=O)c4ccco4)CC3)sc21 the results were VDR inh 7%.
C=CCOc1ccc(/C=C/C(=O)OCC(=O)N2CCN(S(=O)(=O)c3ccc(C)cc3C)CC2)cc1 was read as VDR inh -9%.
Screening Cc1cccc(OCCNC(=O)c2ccc(Oc3ccc(C(F)(F)F)cc3[N+](=O)[O-])cc2)c1 returned VDR inh 5%.
Screening Cc1cccc(NC(=O)CSc2nnc(CCC(=O)Nc3ccc(C)c(Cl)c3)n2C)c1 returned VDR inh -10%.
`CCOC(=O)C(C(=O)OCC)C(CC(=O)C1CC1)c1ccccc1` (stereo not given) gave VDR inh 0%.
For O=C(Nc1ccc2[nH]c(=O)[nH]c2c1)C(F)(F)F the results were VDR inh -3%.
`O=C(CN1C(=O)CCc2cc(S(=O)(=O)N3CCOCC3)ccc21)NCc1ccc(F)cc1` gave VDR inh 1%.
For CCC(Sc1ncc(S(=O)(=O)c2ccc(Cl)cc2)c(=O)[nH]1)C(=O)Nc1ccc(OC)cc1 (stereo not given) the results were VDR inh -6%.
Screening O=C(C(=O)c1cc(Br)ccc1O)c1cc(Br)ccc1O returned VDR inh 20%.
For O=C(CCCC(=O)N(CC(=O)NC1CCCC1)Cc1ccc(F)cc1)Nc1ccccn1 the results were VDR inh 13%.
CC(C)(C)C1CCC2(CC1)NC(=S)N(c1ccccc1)N2 (stereo not given) was read as VDR inh inconclusive.
`C=CCSc1cc(C)nc2c(-c3ccccc3)c(C)nn12` gave VDR inh 6%.
For CCN1C=C(C(C)=O)C(=O)CC1 the results were VDR inh -16%.
For CC(=O)OCC1=C(C(=O)O)N2C(=O)[C@@H](NC(=O)Cc3ccccc3)[C@H]2SC1 the results were VDR inh -3%.
O=[N+]([O-])c1ccc(-c2nn(-c3ccccc3)cc2/C=N/n2c(-c3cccs3)n[nH]c2=S)cc1 was read as VDR inh 1%.
COc1ccc(-c2cc(C(=O)NNC(=O)c3csc(N4CCOCC4)n3)c3ccccc3n2)cc1OC was read as VDR inh 7%.
CSc1nc(=O)n2cc(C)ccc2n1 was read as VDR inh 12%.
Screening COC(=O)C1=C(C)N(c2cccc(C(C)=O)c2)C(=O)C1 returned VDR inh -17%.
`CCOc1ccc(NC(=S)NCc2cccnc2)cc1` gave VDR inh 8%.
COc1ccc(N2CCN(Cc3nc(N)nc(Nc4ccccc4OC)n3)CC2)cc1 was read as VDR inh 8%.
For Cc1cccc(C)c1Nc1nn2c(=O)c3cc4c(cc3nc2s1)OCO4 the results were VDR inh -6%.
CC(=O)c1c(N2CCN(c3ccccc3)CC2)nc(=S)n(-c2ccccc2)c1C was read as VDR inh 0%.
Cc1cc2ncn(CC3CC3(Cl)Cl)c2cc1C (stereo not given) was read as VDR inh 8%.
COc1ccccc1NC(=O)N1CCN(Cc2ccc3c(c2)OCO3)CC1 was read as VDR inh 3%.
`CC(C)N(Cc1ccccc1)S(=O)(=O)c1ccc(F)cc1` gave VDR inh 7%.
Screening N#C/C(=C/c1ccc(N2CCOCC2)c([N+](=O)[O-])c1)C(N)=O returned VDR inh -2%.
Cc1cc(C)cc(OCC(=O)OC/C(O)=C(\C#N)c2nc3ccccc3[nH]2)c1 was read as VDR inh -16%.
`Cc1ccc(C(CC(=O)c2ccc(Cl)cc2)C(=O)O)cc1` (stereo not given) gave VDR inh -9%.
Cc1ccnc(SC2CC(=O)N(c3ccc(C(C)C)cc3)C2=O)n1 (stereo not given) was read as VDR inh -11%.
`Cc1ccnc2c(N3C(=O)C4C5C=CC(C5)C4(C)C3=O)cccc12` (stereo not given) gave VDR inh -21%.
Screening Cc1cc(C)c(S(=O)(=O)Nc2ccc3oc4c(c3c2)C(=O)CC(C)(C)C4)cc1C returned VDR inh -15%.
Screening Cc1cc(=O)n(-c2ccccc2Cl)[nH]1 returned VDR inh 2%.
Screening O=c1cc(-c2ccccc2Cl)oc2c(NS(=O)(=O)c3cccc4nsnc34)ccc(O)c12 returned VDR inh -11%.
CCCCC(CC)COC(=O)CC(C(=O)OCC(CC)CCCC)S(=O)(=O)O (stereo not given) was read as VDR inh 25µM*.
For Cc1cccc(NC(=O)c2nc[nH]c2C(=O)N[C@@H](C)C(=O)OC(C)(C)C)c1 the results were VDR inh -7%.

Of the compounds above, these have a furan ring, fused or not:
Screening CCN(c1ccc(OC)cc1)S(=O)(=O)c1ccc(-c2ccc(=O)[nH]n2)o1 returned VDR inh 9%.
`CCOc1cc(NC(=O)c2ccco2)c(OCC)cc1NC(=O)CCC(=O)NCc1cccnc1` gave VDR inh 2%.
For Cn1nc(-c2ccc(Cl)cc2)c2cc(C(=O)N3CCN(C(=O)c4ccco4)CC3)sc21 the results were VDR inh 7%.
Screening Cc1cc(C)c(S(=O)(=O)Nc2ccc3oc4c(c3c2)C(=O)CC(C)(C)C4)cc1C returned VDR inh -15%.

Following part:
O=C(NCc1ccco1)C(=O)c1cn(CC(=O)N2CCCC2)c2ccccc12 was read as VDR inh -9%.
`O=C(NCCCN1CCOCC1)c1onc(CSc2ccncc2)c1C(=O)NCCCN1CCOCC1` gave VDR inh 2%.
Screening COc1ccc(OCC2c3cc(OC)c(OC)cc3CCN2C(=O)c2c(F)cccc2F)cc1 (stereo not given) returned VDR inh 2%.
For CCOC(=O)c1nnn(-c2nonc2-n2cccc2)c1CCl the results were VDR inh 1%.
For COc1ccc(N(CC(=O)NCCSCc2ccc(Cl)cc2)S(C)(=O)=O)cc1Cl the results were VDR inh -19%.
O=C(Cn1c(-c2ccccc2)noc1=O)N1CCC(Cc2ccccc2)CC1 was read as VDR inh 3%.
Screening CCOc1ccc(NC(=O)COc2ccc(C(=O)NCC3CCCO3)cc2OC)cc1 (stereo not given) returned VDR inh 10%.
`CCCCc1cc(=O)oc2cc(C)cc(OCC(=O)N3CCC(C(=O)O)(c4ccccc4)CC3)c12` gave VDR inh -13%.
For Cc1ccc2nc(-c3ccc(NS(=O)(=O)c4ccccc4)cc3)sc2c1 the results were VDR inh -7%.
For C#CCCCCCCCCCCCCCCCC(=O)O the results were VDR inh -16%&-5%&5%.
For CCOC(=O)Nc1cc(=O)c2ccccc2o1 the results were VDR inh -2%.
Screening CC1CC(C)CN(C(=O)C(Cc2ccccc2)n2cccc2)C1 (stereo not given) returned VDR inh 9%.
For Cc1ccc(NC(=O)CCn2c(=O)[nH]c3ccsc3c2=O)cc1F the results were VDR inh -2%.
`O=S(=O)(c1cccs1)N1CCN(c2ccnc3cc(Cl)ccc23)CC1` gave VDR inh 25%.
`O=Cc1cn(Cc2ccccc2)nc1-c1cccnc1` gave VDR inh 3%.
Screening O=C(CSc1nnc(Nc2ccccc2)s1)NCc1cccs1 returned VDR inh -1%.
`Cc1ccc(/C=C2\C(=N)N3N=C(CC(=O)N4CCOCC4)SC3=NC2=O)o1` gave VDR inh -10%.
N[C@@H](Cc1ccccc1)C(=O)N1CCC(C(=O)N[C@@H](CCC(=O)O)C(=O)O)CC1 was read as VDR inh -3%.
Screening COc1cccc(-c2nnc(SCC(=O)NC3CCS(=O)(=O)C3)n2C)c1 (stereo not given) returned VDR inh -23%.
For O=C(CN1CCCCC1CO)c1ccc(OC(F)F)cc1 (stereo not given) the results were VDR inh 2%.
CCc1ccc(CNC(=O)CCc2nnc(CCc3ccc(OC)cc3)o2)nc1 was read as VDR inh -4%.
`COc1ccc(S(=O)(=O)NCCc2sc(-c3cccnc3)nc2C)cc1` gave VDR inh 11%.
For CCCCN(C(=S)Nc1ccccc1)C1CCS(=O)(=O)C1 (stereo not given) the results were VDR inh -3%.
`COc1ccccc1/C=C/c1nc(S(=O)(=O)c2ccccc2)c(NCCN(C)C)o1` gave VDR inh inconclusive.
`COn1c(=O)c(=O)n(OC)c2ccccc21` gave VDR inh -6%.
For CCOc1ccc2nc(NS(C)(=O)=O)sc2c1 the results were VDR inh -5%.
CCN(c1ccccc1)S(=O)(=O)c1ccc(Cl)c(NC(=O)COC(=O)C2CC2C)c1 (stereo not given) was read as VDR inh 0%.
`O=c1c2ccccc2n(Cc2cccc(F)c2)c(=O)n1C1CCCC1` gave VDR inh 11%.
Screening Cc1ccc2nsnc2c1S(=O)(=O)NCc1ccncc1 returned VDR inh 2%.
Screening Cc1cc(C)c(NC(=O)CN(C)S(=O)(=O)c2ccc3c(c2)CCC(=O)N3)c(C)c1 returned VDR inh -3%.
Screening COCCN(C(=O)CCC(=O)Nc1ccccn1)C(C(=O)NC(C)C)c1ccc(C)cc1 (stereo not given) returned VDR inh 4%.
Screening O=C(CSc1ncnc2scc(-c3ccccc3)c12)N1CCN(Cc2ccc3c(c2)OCO3)CC1 returned VDR inh -37%.
Screening COc1cccc(C(=O)COC(=O)C2CC3CCCC(C2)C3=O)c1 (stereo not given) returned VDR inh 12%.
Screening Cc1ccc(NS(=O)(=O)c2c(C(=O)N3CCCCCC3)c(C)n(C)c2C)c(Cl)c1 returned VDR inh -5%.
For COc1cc(C=O)ccc1OC(=O)Nc1ccccc1 the results were VDR inh 17%.
Cn1c(CN2CCOCC2)nnc1SCC(N)=O was read as VDR inh 11%.
`CCOC(=O)c1cc2c(=O)n3ccccc3nc2n(C)c1=NC(=O)c1c(-c2c(F)cccc2Cl)noc1C` gave VDR inh 2%&1%.
Screening CC1CCN(c2c(NCc3ccc(C(=O)N4CCc5ccccc54)cc3)c(=O)c2=O)CC1 returned VDR inh -11%.
`O=C(Nc1ccccc1C(=O)N/N=C/c1ccncc1)c1ccccc1` gave VDR inh -11%.
For COC(=O)c1ccc(N(CC(=O)NC2CCCC2)C(=O)CNC(=O)c2cccs2)cc1 the results were VDR inh -23%.
Screening CCC(C(=O)N1CCc2cc(OC)c(OC)cc2C1)c1ccccc1 (stereo not given) returned VDR inh 4%.
O=C(CCCN1C(=O)/C(=C/c2ccccc2Cl)SC1=S)NNC(=O)c1ccccc1Cl was read as VDR inh 6%.
`S=C(c1ccc2c(c1)OCO2)N1CCOCC1` gave VDR inh 3%.
`C[C@@H](C(=O)NCC1CCCO1)N1C(=O)N2CCc3c([nH]c4ccccc34)[C@@]2(C)C1=O` (stereo not given in full) gave VDR inh -16%.
CCC(C)NC(=O)Cc1ccc(-c2ccccc2)cc1 (stereo not given) was read as VDR inh -1%.
Cc1c(Cl)cccc1NC(=O)Cn1cc(C(=O)c2cccs2)c2ccccc21 was read as VDR inh -5%.

Taken from the listing, two compounds:
CCC(C)NC(=O)Cc1ccc(-c2ccccc2)cc1 (stereo not given) was read as VDR inh -1%.
Cc1c(Cl)cccc1NC(=O)Cn1cc(C(=O)c2cccs2)c2ccccc21 was read as VDR inh -5%.

Fetched one by one from the entries so far, 7 records:
COc1ccc(S(=O)(=O)N2CCCC2)cc1OC was read as VDR inh -7%.
`CCCCc1cc(=O)oc2cc(C)cc(OCC(=O)N3CCC(C(=O)O)(c4ccccc4)CC3)c12` gave VDR inh -13%.
`COc1ccc(S(=O)(=O)N(CC(=O)Nc2ccc(F)c(Cl)c2)c2ccc(C)cc2)cc1OC` gave VDR inh 19%.
CCC(C)NC(=O)Cc1ccc(-c2ccccc2)cc1 (stereo not given) was read as VDR inh -1%.
CCc1ccc(CNC(=O)CCc2nnc(CCc3ccc(OC)cc3)o2)nc1 was read as VDR inh -4%.
For CCOc1ccc2nc(NS(C)(=O)=O)sc2c1 the results were VDR inh -5%.
Screening O=C(CSc1nnc(Nc2ccccc2)s1)NCc1cccs1 returned VDR inh -1%.

Screening results as filed in PubChem BioAssay.
